PABP polyA inh – PABP poly(A) RNA binding inhibitors, primary screen, biochemical, fluorescence polarization, uHTS | inhibition, % at 35 µM | Polyadenylate-binding protein 1 (Homo sapiens), P11940 | 290,000 compounds, 1% hits;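 active means 50% or more with normal probe brightness, or confirmed in later tests; about a fifth of its hits are not listed in these tables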;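 further: calls also rest on retests at 20 µM and on dose response follow-up; controls were probe without protein and protein plus probe with vehicle; some compounds called inactive have numbers as strong as hits; many hits fall short of the cut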
Target sequence (P11940 whole entry, looked up): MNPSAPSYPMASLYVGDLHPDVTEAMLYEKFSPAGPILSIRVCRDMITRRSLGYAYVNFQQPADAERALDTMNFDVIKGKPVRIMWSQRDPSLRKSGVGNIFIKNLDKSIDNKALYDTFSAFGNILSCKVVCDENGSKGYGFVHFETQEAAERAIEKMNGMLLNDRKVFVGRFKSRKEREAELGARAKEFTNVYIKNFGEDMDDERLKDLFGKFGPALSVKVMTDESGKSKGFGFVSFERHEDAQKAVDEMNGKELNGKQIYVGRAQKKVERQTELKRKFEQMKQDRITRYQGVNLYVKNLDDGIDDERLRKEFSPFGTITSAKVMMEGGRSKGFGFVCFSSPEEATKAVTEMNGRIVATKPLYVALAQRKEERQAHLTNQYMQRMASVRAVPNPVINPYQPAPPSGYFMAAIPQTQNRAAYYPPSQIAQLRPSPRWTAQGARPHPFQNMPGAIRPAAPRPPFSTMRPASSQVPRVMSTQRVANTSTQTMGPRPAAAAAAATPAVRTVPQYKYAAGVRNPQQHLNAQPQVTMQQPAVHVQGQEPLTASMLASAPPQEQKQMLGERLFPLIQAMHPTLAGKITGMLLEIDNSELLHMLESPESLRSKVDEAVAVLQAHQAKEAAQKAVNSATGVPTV
Rce1 inhib – yeast Rce1p protease inhibitors, primary screen, biochemical, fluorescence, cell-free homogeneous | CAAX prenyl protease 2 (Saccharomyces cerevisiae (strain ATCC 204508 / S288c)), Q03530 | yeast membranes, quenched prenylated peptide cleavage fluorescence | calls only | 290,000 compounds, 0.27% hits | AID 2563, 2010;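 active means fall in fluorescence gain of 50% or more versus controls, with final raw signal at or below 3038400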;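 further: plate controls were neutral control wells for no effect and wells lacking membranes for full effect; tested at 10 µM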
CSC inhib – cancer stem cell viability inhibitors, primary screen, luminescence. cancer stem cell-like cells viability. inhibition, % at 7.5 µM. 300,000 compounds, 1.1% hits;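 active means mean at 75% or more and at least half the replicates too; tested in HMLE shEcad cells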;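 further: 0% = median of negative and 100% = median of positive control wells; the first replicate is given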
eIF4H inh – human eIF4H binding inhibitors, primary screen, translation initiation inhibitor project, biochemical, uHTS, fluorescence polarization; inhibition, % at 35 µM; 290,000 compounds, 0.94% hits; eIF4H fluorescence polarization binding assay; AID 2012, 2009;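 active means 50% or more with normal probe brightness, or confirmed in later tests; about a fifth of its hits are not listed in these tables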;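 further: calls also rest on retests at 20 µM and on dose response follow-up; 0% = protein and probe with vehicle and 100% = probe without protein; strong numbers were not always called active; many hits fall short of the cut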
MT1-MMP act inh – blockers of MT1-MMP proenzyme processing, primary screen, HT1080 RFP-PRO-GFP cells, GFP/RFP fluorescence. GFP/RFP ratio fluorescence, overnight; percent of plate control window, DMSO zero. GFP/RFP ratio change, % at 20 µM. 360,000 compounds, 0.061% hits. AID 651647, 2012;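 active means GFP/RFP ratio change of at least 30% with cell ATP level not reduced by more than half and red fluorescence within 50% of control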; further: strong numbers were not always called active
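Test system: HT1080 cells expressing an RFP-PRO-GFP fluorescent reporter construct / Compound dosing: single-point 20 µM compound, 1% DMSO / Schedule: cells overnight before dosing, compound overnight, 37 °C, 5% CO2 / Evaluation: GFP/RFP fluorescence ratio / Control set: DMSO and RFP-L50D-GFP cell wells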
UUG fidelity – modulators of yeast start codon fidelity, primary screen, whole organism, S. cerevisiae, single point, plate reader; S. cerevisiae UUG-firefly luciferase reporter, luminescence/redox ratio; activity score, % at 18.7 µM; 350,000 compounds, 0.13% hits; AID 602363, 2012;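 active means replicate mean at a twofold rise or more, about +100% in these data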;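 further: firefly luciferase made from a UUG start codon reports start codon fidelity; reporter light over untreated wells divided by growth signal over untreated wells; some hits fall short of that in this replicate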
HIV Env fusion – inhibitors of HIV-1 Env-driven cell-cell fusion, primary screen, HeLa-JRFL effector, CEM21 target cells, luciferase; 360,000 compounds, 1.1% hits; inhibition, % at 12.3 µM;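 active means mean replicate inhibition score of at least 50 and every replicate individually at or above 50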;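 further: 0% = plate neutral controls and 100% = maraviroc near 300 nM; one replicate is shown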
MT1-MMP act inh RFP – further read-out of MT1-MMP act inh, marked with its call; RFP signal change, %; measured here: RFP expression control read;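 0 = vehicle wells; hits needed this value within 50% of zero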
* hit, by the source's call; i = inactive; · = not tested or not shown.

SMILES	PABP polyA inh	Rce1 inhib	CSC inhib	eIF4H inh	MT1-MMP act inh	MT1-MMP act inh RFP	UUG fidelity	HIV Env fusion
Cc1ccc(NC(=O)c2ccc(COc3ccccc3)o2)nc1	-2	i	14	8	0	8	-24	-15
Cc1ccc(OCCC(=O)Nc2ccc(F)c(Cl)c2)cc1	5	i	14	-5	3	4	·	-21
O=C(NC1CCN(S(=O)(=O)c2ccccc2F)CC1)c1cccnc1	7	i	-2	9	-1	0	-13	4
O=C(Cn1cnnn1)NCc1ccccc1	-5	i	-10	-6	-2	1	-9	2
CCOc1ccc2nc(NC(=O)C3CCCO3)sc2c1 (stereo not given)	-4	i	15	-13	4	3	-18	-32
CN(O)/C=C1\C(=O)Nc2ccccc21	3	i	-11	-5	-2	2	-9	·
COc1ccc(OC)c(NC(=S)NCc2cccs2)c1	-9	i	-5	-2	-2	2	-7	0
O=C(Nc1ccc(NC(=O)c2ccc(S(=O)(=O)c3ccccc3)cc2)cc1)c1ccccc1	-1	i	-10	-18	-3	-2	-8	·
O=C1NC(=O)C(CC(=O)N(Cc2cccs2)C2(C(=O)NC3CCCC3)CCCCC2)N1 (stereo not given)	0	i	-17	1	-2	6	·	·
COc1cccc(OC)c1C(=O)Nc1ccc(NC(=O)c2ccco2)cc1	-6	i	5	-6	1	-2	-23	-8
O=C(CSc1nnc(C2CC2)n1C1CC1)c1ccc(F)cc1	·	·	3	·	-2	-1	-33	-2
Cc1c(C(=O)NNc2c(Cl)cccc2Cl)n(C)oc1=O	-10	i	-2	11	-1	4	·	21
CN(C)CCN(C)C1CN(CCc2ccccc2)S(=O)(=O)C1 (stereo not given)	·	·	·	·	4	4	-17	4
O=C(NCC(c1cccs1)N1CCOCC1)c1cc(S(=O)(=O)N2CCOCC2)ccc1Cl (stereo not given)	·	·	·	·	-3	0	-1	7
CCc1ccc(NC(=O)CO/N=C(\C)c2cc3ccccc3o2)cc1	45	i	-8	-12	3	6	-8	4
O=S(=O)(c1ccccc1F)N1CCN(c2nc(-c3cccnc3)nc3ccccc23)CC1	·	·	·	·	-6	-3	-10	i
O=C1C(Cc2ccc(Br)cc2)SC(=Nc2ccccc2)N1c1ccccc1 (stereo not given)	31	i	24	-4	-16	-13	·	-1
CSc1ccccc1C(=O)C1CCCN(C(=O)c2cncs2)C1 (stereo not given)	3	i	5	-16	-3	-3	11	-2
CC1CCCN(S(=O)(=O)c2ccc(C(=O)Nc3sc4c(c3C(N)=O)CCN(C)C4)cc2)C1 (stereo not given)	-7	i	5	12	·	·	-13	7
COc1ccc(C(=O)Nc2cccc(-c3ccc4nncn4n3)c2)cc1	-12	i	·	2	4	-1	·	20
O=C(O)CSCC(=O)N1CCCN(c2nccc(C(F)(F)F)n2)CC1	7	i	3	-1	-2	-1	0	-8
Clc1nc(NC2CCCCC2)c2cn[nH]c2n1	·	·	·	·	0	0	18	-67
CC1CC(C)CN(CCCNC(=O)c2csc3c2CCCC3)C1 (stereo not given)	-8	i	21	1	6	7	·	25
CCN1CCN(CC(=O)Nc2ccc3c(c2)OCO3)C(=O)C1=O	-5	i	1	-4	1	4	-11	-17
CC(Sc1nnc2ccccn12)C(=O)Nc1ccc(Cl)cn1 (stereo not given)	-4	i	-16	-3	-5	-1	-13	·
Cn1c(=O)c2c(ncn2CC(=O)OCC(=O)Nc2cc(Cl)ccc2Cl)n(C)c1=O	8	i	-3	-1	-3	6	·	-4
Cc1ccc(OCCCn2c(=O)oc3ccccc32)cc1	-1	i	-12	-6	-2	-1	-10	-3
Cc1ccc(C2CC(c3cccc(C)c3)n3ncnc3N2)cc1 (stereo not given)	-9	i	2	0	3	3	-19	1
CCCCNCc1cc(OC)c(OCC(N)=O)cc1Br	2	i	-11	-1	-1	2	-11	-26
Cc1ccc([N+](=O)[O-])cc1S(=O)(=O)n1ccnc1C	1	i	·	-2	0	4	·	-2
CC(C)(CC(=O)OCC(=O)Nc1ccccc1F)CC1=NS(=O)(=O)c2ccccc2N1	·	i	-10	·	0	-13	1	2
Cc1cc2ccccn2c1C(=O)c1ccccc1Br	-2	i	·	-1	-1	1	-9	5
CC(NC(=O)c1cc(-c2ccncc2)nc2ccc(Br)cc12)C1CCCO1 (stereo not given)	-8	i	-6	-8	3	0	2	18
CCCCSc1cc(C)nc2ncnn12	-6	i	-3	-2	3	2	-1	·
C=C(C)Cn1c(CCCNC(=O)C(C)(C)C)nc2ccccc21	10	i	-1	-4	-1	-1	5	-18
CN(Cc1nc2ccc(F)cc2[nH]1)Cc1nc(CC2CC2)no1	-8	i	1	3	-4	-6	·	9

An excerpt of these results, comma-delimited.
structure,PABP polyA inh,Rce1 inhib,CSC inhib,eIF4H inh,MT1-MMP act inh,MT1-MMP act inh RFP,UUG fidelity,HIV Env fusion
CC(C)(CC(=O)OCC(=O)Nc1ccccc1F)CC1=NS(=O)(=O)c2ccccc2N1,·,i,-10,·,0,-13,1,2
C=C(C)Cn1c(CCCNC(=O)C(C)(C)C)nc2ccccc21,10,i,-1,-4,-1,-1,5,-18
Cn1c(=O)c2c(ncn2CC(=O)OCC(=O)Nc2cc(Cl)ccc2Cl)n(C)c1=O,8,i,-3,-1,-3,6,·,-4
CCCCSc1cc(C)nc2ncnn12,-6,i,-3,-2,3,2,-1,·
Cc1cc2ccccn2c1C(=O)c1ccccc1Br,-2,i,·,-1,-1,1,-9,5

Additional records:
SMILES	PABP polyA inh	Rce1 inhib	CSC inhib	eIF4H inh	MT1-MMP act inh	MT1-MMP act inh RFP	UUG fidelity	HIV Env fusion
O=C1N(Cc2cccc(Cl)c2)C[C@@H]2C[C@@H](c3cccn3-c3ccccn3)N3CCC[C@@]123	8	i	9	19	-3	4	-7	-12
CCc1ccc(-c2cc(C)no2)cc1S(=O)(=O)NCCN1CCC(C)CC1	-12	i	9	-7	2	2	-15	8
CCc1ccc(C(C)NC(=O)c2ccc(F)cc2)cc1 (stereo not given)	1	i	-13	-6	4	4	-15	·
CC(C)(C)OC(=O)N(Cc1ccccc1)Cc1ccccc1OCc1cccc(NC(=O)C2CC2)c1	·	·	·	·	-10	-9	-2	2
CCOC(=O)N1CCN(S(=O)(=O)N(C)C)CC1	-6	i	-13	-10	10	6	-4	·
OC(COCc1ccccc1)CN1CCN(c2ccccc2)CC1 (stereo not given)	9	i	16	-4	0	3	-6	-29
COC1CCN(Cc2c(C(=O)N3CCN(C4CCCCC4)CC3)nc3ccccn23)CC1	24	i	5	20	-1	5	-9	·
COc1cccc(CN2CCN(Cc3cc4ccccc4[nH]3)CC2CCO)c1 (stereo not given)	-4	i	-15	15	-6	-2	·	-9
CSC1=NCCN1C(=O)c1ccc(C)cc1	-2	i	9	7	-1	2	·	12
O=C(Nc1cccc(Cl)c1)ON=C1c2ccccc2-c2ccccc21	9	i	-16	2	-2	-2	·	·
CC(C)c1ccc(NC(=O)C(c2ccccc2)N2CCOCC2)cc1 (stereo not given)	-6	i	-7	-13	3	6	11	2
Cc1cccc(C)c1NC(=O)C[N+](C)(C)CC(O)COc1cccc2ccccc12 (stereo not given)	-5	i	16	1	-1	6	·	4
COc1ccccc1-c1nnc(NC(=O)C2=COCCO2)o1	-10	i	-13	1	7	6	·	-29
Cc1ccc(CNC(=O)C(CC(C)C)OC(=O)c2ccco2)cc1 (stereo not given)	4	i	1	-2	0	2	-11	1
COc1ccc(Nc2nnc(SCC(=O)N3CC(=O)Nc4ccccc43)s2)cc1	3	i	-5	-5	6	3	·	4
O=P(c1ccccc1)(c1ccccc1)c1nc(-c2ccc(Cl)cc2)oc1N1CCOCC1	2	i	-5	-5	-14	-12	1	0
CC(Oc1cccc(Cl)c1)C(=O)Nc1cc(S(=O)(=O)N2CCOCC2)ccc1N1CCCCC1 (stereo not given)	·	i	-3	·	-12	-18	·	26
Cc1ccc(Cn2c(C)c(C(=O)NCc3ccccc3C(F)(F)F)sc2=O)cc1	·	·	·	·	-6	-4	-2	0
Cc1cc(C2=NNC(=NC3CC3)SC2)c(C)n1-c1ccccc1F	-2	i	10	-29	1	2	·	56*
COc1cc(-c2cc(=O)c3ccccc3o2)ccc1O	6	i	22	9	-3	-1	-5	·
Oc1ccccc1-c1cc(-c2ccco2)[nH]n1	28	i	0	-1	1	5	9	-181
Cc1ccc(S(=O)(=O)NCc2nnnn2-c2ccc(F)cc2)cc1	·	·	·	·	-1	0	-9	2
O=C(CSc1nnc(-c2ccncc2)o1)Nc1ccccc1Cl	-9	i	-5	0	5	-1	-18	·
CC(C)Sc1nnc(SCC(=O)N(C)C2CCS(=O)(=O)C2)s1 (stereo not given)	·	·	-10	·	1	4	-7	-1

As entered above.
HIV Env fusion result of `CC(Oc1cccc(Cl)c1)C(=O)Nc1cc(S(=O)(=O)N2CCOCC2)ccc1N1CCCCC1` (stereo not given) = 26
eIF4H inh result of `COc1ccc(Nc2nnc(SCC(=O)N3CC(=O)Nc4ccccc43)s2)cc1` = -5
CSC inhib result of `CC(C)Sc1nnc(SCC(=O)N(C)C2CCS(=O)(=O)C2)s1` (stereo not given) = -10
MT1-MMP act inh result of `O=P(c1ccccc1)(c1ccccc1)c1nc(-c2ccc(Cl)cc2)oc1N1CCOCC1` = -14
UUG fidelity result of `Cc1ccc(S(=O)(=O)NCc2nnnn2-c2ccc(F)cc2)cc1` = -9
MT1-MMP act inh result of `O=C(CSc1nnc(-c2ccncc2)o1)Nc1ccccc1Cl` = 5
CSC inhib result of `COc1cc(-c2cc(=O)c3ccccc3o2)ccc1O` = 22

Going on with the list:
SMILES	PABP polyA inh	Rce1 inhib	CSC inhib	eIF4H inh	MT1-MMP act inh	MT1-MMP act inh RFP	UUG fidelity	HIV Env fusion
N#Cc1c(N2CCOCC2)nc(-c2ccco2)c2c1CCCC2	9	i	19	4	-6	-5	-16	-60
O=C(C1CCN(c2nnc(-n3cccc3)s2)CC1)N1CCN(c2cccc(C(F)(F)F)c2)CC1	-6	i	-10	-5	-1	-15	-1	·
COc1ccc(OC)c(-c2cc(C(=O)NCc3cccs3)no2)c1	0	i	-2	5	1	-1	2	-9
O=C(CSc1ccc2ccccc2n1)N/N=C/c1ccccc1O	-3	i	30	-5	-1	-6	-14	28
CCOC(=O)NN1C(=O)c2ccccc2NC1c1ccc(N(C)C)cc1 (stereo not given)	10	i	-15	4	-1	-1	-2	22
CC(C)c1nnc(NC(=O)COc2ccc3ccccc3c2)s1	-4	i	-1	-6	0	7	-15	-5

Four entries drawn at random from the list so far, as already listed:
SMILES	PABP polyA inh	Rce1 inhib	CSC inhib	eIF4H inh	MT1-MMP act inh	MT1-MMP act inh RFP	UUG fidelity	HIV Env fusion
O=C(C1CCN(c2nnc(-n3cccc3)s2)CC1)N1CCN(c2cccc(C(F)(F)F)c2)CC1	-6	i	-10	-5	-1	-15	-1	·
COc1ccc(OC)c(-c2cc(C(=O)NCc3cccs3)no2)c1	0	i	-2	5	1	-1	2	-9
CC(C)c1nnc(NC(=O)COc2ccc3ccccc3c2)s1	-4	i	-1	-6	0	7	-15	-5
CCOC(=O)NN1C(=O)c2ccccc2NC1c1ccc(N(C)C)cc1 (stereo not given)	10	i	-15	4	-1	-1	-2	22

Bioassay records from PubChem.

Hits appear at their usual frequency; overall some 2.9% were active at least once.
